# HNF4A DNA FP = change in binding of human HNF4 alpha to DNA; P41235; HNF4a-FITC DNA binding, fluorescence polarization, 1 h; activity change, % at 10 µM; 360,000 tested, 0.3% active; in the data active means activity change above about 30%, passing the limit was not always enough;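 further: controls were the assay level and a saturating level of protein; the project sought stronger binding though the title names inhibitors; some compounds called inactive have numbers as strong as hits; positive values seem to mean higher polarization but the record does not say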
# Target sequence (P41235 whole entry, looked up): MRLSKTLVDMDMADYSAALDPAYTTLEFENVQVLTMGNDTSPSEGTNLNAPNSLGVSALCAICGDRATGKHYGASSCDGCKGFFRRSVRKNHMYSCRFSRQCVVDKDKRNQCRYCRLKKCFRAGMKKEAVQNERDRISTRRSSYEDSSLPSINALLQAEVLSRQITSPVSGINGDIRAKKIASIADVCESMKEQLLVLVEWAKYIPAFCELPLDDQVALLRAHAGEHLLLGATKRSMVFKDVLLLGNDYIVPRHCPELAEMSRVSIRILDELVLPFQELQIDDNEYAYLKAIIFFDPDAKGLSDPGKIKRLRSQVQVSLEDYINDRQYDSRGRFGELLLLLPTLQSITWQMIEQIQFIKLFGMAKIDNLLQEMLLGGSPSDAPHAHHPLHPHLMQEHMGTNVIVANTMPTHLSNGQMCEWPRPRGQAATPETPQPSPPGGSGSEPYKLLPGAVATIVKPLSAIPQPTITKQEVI
# Vif TR-FRET = inhibitors of Vif binding to APOBEC3G peptide, primary screen, biochemical, TR-FRET, GST-Vif 1-94, biotin-A3G peptide, dose response retest (AID 1117319); 260,000 tested, 0.57% active; one-dose inhibition, %; IC50 in µM for titrated hits; TR-FRET GST-Vif / biotin-A3G peptide binding; higher % means a stronger effect; test concentration not given here; strong numbers were not always called active;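 active means above the screen mean plus three standard deviations and confirmed in dose response; inconclusive means results disagree or hit not tested in dose response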;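 further: Vif residues 1-94 fused to GST binding biotinylated APOBEC3G peptide 110-148; 0% = full assay without inhibitor and 100% = GST in place of GST-Vif; retest series ran down from 100 µM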
# ALR H2O2 inh = blocks human ALR sulfhydryl oxidase activity; purified ALR, DTT oxidation, H2O2 HRP-luminol luminescence; 290,000 tested, 3.8% active; inhibition, % (concentration not given with the values); P55789; AID 485317;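 active means mean and each replicate at 75% or more; inconclusive means only one of the two met; inactive means neither met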;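 further: stock transfer was 7.5 nL into about 7.5 µL; 0% = neutral wells and 100% = wells with inactivated enzyme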
# FGF22 binding = shifts melting point of recombinant human FGF22; recombinant FGF22 thermal shift, SYPRO orange fluorescence; percent of sucrose octasulfate shift, DMSO zero; calls only at 9.99 µM; 340,000 tested, 1.5% active;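 active means melting point raised past a set limit in the mean and every replicate; inconclusive means no clear call; three in four hits are not shown here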
# E coli growth = blocks Escherichia coli growth. OD600 absorbance (no concentration beside the values). OD600, 23 h; stronger effect = lower value. 330,000 tested, 0.21% active. AID 1053175;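 active means OD600 absorbance below the run mean of sample wells minus 3.6 SD, in any replicate, cut at about 0.56 in these data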;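 further: stock transfer was 300 nL into about 60 µL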
# MLL AF4-AF9 inh = MLL-AF4/AF9 protein interaction inhibition; P42568; AlphaScreen, biotin-AF4 peptide binding to FLAG-AF9; inhibition, % at 10 µM; 350,000 tested, 0.47% active; AID 651704;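 active means every replicate reaching a set inhibition limit, whatever the replicate mean, cut at about 25% in these data; inconclusive means mean inhibition reaches that limit but some replicates miss it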;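 further: 0% = plate neutral control median and 100% = total signal loss; the record names both 10 and 1 µM as test concentration; the first replicate is given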
# Target sequence (P42568 whole entry, looked up): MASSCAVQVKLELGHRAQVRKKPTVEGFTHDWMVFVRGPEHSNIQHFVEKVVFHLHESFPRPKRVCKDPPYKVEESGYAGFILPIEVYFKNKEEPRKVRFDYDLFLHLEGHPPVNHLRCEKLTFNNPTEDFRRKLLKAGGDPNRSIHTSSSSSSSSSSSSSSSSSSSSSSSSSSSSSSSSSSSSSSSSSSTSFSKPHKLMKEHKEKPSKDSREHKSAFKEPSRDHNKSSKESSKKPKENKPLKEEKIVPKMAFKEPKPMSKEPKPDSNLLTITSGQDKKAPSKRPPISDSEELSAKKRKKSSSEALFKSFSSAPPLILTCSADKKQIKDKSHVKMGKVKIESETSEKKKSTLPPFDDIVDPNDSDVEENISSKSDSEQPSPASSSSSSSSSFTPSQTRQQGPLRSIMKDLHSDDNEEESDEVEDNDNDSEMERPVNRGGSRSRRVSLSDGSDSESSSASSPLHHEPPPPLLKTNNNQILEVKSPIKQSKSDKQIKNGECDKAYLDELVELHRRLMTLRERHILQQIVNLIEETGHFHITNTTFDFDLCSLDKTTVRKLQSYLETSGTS
# Ecoli rRNA inh = selective bacterial rRNA inhibition in E. coli | E. coli WT GFP vs humanized-ribosome RFP mutants, fluorescence, 24 h; stronger effect = lower value; DMSO median 0, no signal -100 | GFP signal change (wild-type ribosome), % (no concentration beside the values) | 350,000 tested, 1.6% active | AID 720706;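 active means significant combined selectivity score with lowered wild-type GFP, culture density cut under 30%, mutant RFP and density less affected; inactive means any of these conditions unmet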; further: one replicate is shown; some compounds called inactive have numbers as strong as hits
# Ecoli rRNA inh OD600 = further read-out of Ecoli rRNA inh, marked with its call; OD600 change, %; measured here: OD600 growth;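 optical density of the mix in the first replicate; 0 = DMSO median and -100 = no signal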
# Ecoli rRNA inh RFP = further read-out of Ecoli rRNA inh, marked with its call; RFP signal change, %; measured here: RFP humanized mutant strains;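 first replicate; 0 = DMSO median and -100 = no signal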
# Starred values were filed as active, the others as inactive; i = inactive; ? = inconclusive; . = no result given. Only part of the results is shown, so the mix of outcomes need not match the whole.
SMILES	HNF4A DNA FP	Vif TR-FRET	ALR H2O2 inh	FGF22 binding	E coli growth	MLL AF4-AF9 inh	Ecoli rRNA inh	Ecoli rRNA inh OD600	Ecoli rRNA inh RFP
Oc1ccc(CN2CCC(Cc3ccccc3)CC2)c2cccnc12	.	11%	.	i	0.46*	76*	-56	-77	-22
O=C(c1ccco1)N1CCN=C1SCc1ccccc1F	-1.7	69%	95*	i	0.74	2.0	-2	11	-10
CCc1cc(=O)oc2c(C)c(O)c(CN3CCCCC3)cc12	0.5	-2%	23	.	0.74	.	.	.	.
COc1ccc(NC2=C(C)C(=O)CC2)cc1	2.0	-8%	13	.	0.77	.	.	.	.
C=CC[n+]1ccn(-c2nc3ccccc3nc2[N-]S(=O)(=O)c2cccs2)c1	3.2	?	95*	.	0.68	-1.9	-18	-13	-4.9
Cc1ccc(S(=O)(=O)Nc2cccc(-n3cnnn3)c2)cc1	-1.2	-12%	-3	i	0.71	-3.8	3	-1	0.0
O=c1[nH]nc(N/N=C/c2ccccc2OC(F)F)c(=O)[nH]1	-3.6	.	36	i	.	-13	3	4	-4.4
COc1cccc(CNc2ccc(C)c(Cl)c2)c1	-1.8	-10%	41	i	0.69	2.7	-26	-24	3.8
O=C1CC(c2cccc(Cl)c2)Cc2nc(N3CCN(c4ccccc4)CC3)ncc21 (stereo not drawn)	3.0	9%	-6	.	0.76	.	.	.	.
COC(=O)c1cccc(C(=O)Nc2ccc(F)cc2)n1	-2.4	-2%	-2	.	0.64	.	.	.	.
CC(C)c1cc(C(=O)O)on1	-1.5	-1%	-18	.	0.65	.	.	.	.
Cc1ccc(-n2c(-c3ccncc3)nnc2-c2ccco2)cc1	0.0	8%	-12	.	0.68	.	.	.	.
O=C(Cn1c(=O)oc2ccccc21)N1CCCC1	0.1	10%	-2	i	0.69	-0.7	13	8	-0.8
O=[N+]([O-])c1ccc(C=NN2CCNC2=S)o1	2.9	0%	.	i	.	0.6	-62	-76	-20
CCOC(=O)CNC(=O)C(Cc1ccccc1)NC(=O)OCc1ccccc1 (stereo not drawn)	-4.4	-1%	2	i	.	-1.1	9	10	0.7
COc1ccc(OCC(=O)N2CCC(n3nccc3NC(=O)C3CC3)CC2)cc1	-0.9	-4%	-1	i	0.64	-5.5	6	3	2.6
COc1ccc(C(c2c(O)cc(C)oc2=O)c2c(O)cc(C)oc2=O)cc1	0.8	22%	-1	.	0.69	.	.	.	.
O=C(OCc1cccc(C(F)(F)F)c1)c1cc(S(=O)(=O)N2CCOCC2)ccc1F	-1.0	.	-1	i	0.69	-1.6	2	-10	5.0
Cc1c(NC(=O)CSc2nc3ccc(Cl)cc3[nH]2)c(=O)n(-c2ccccc2)n1C	-0.5	2%	-10	.	0.73	.	.	.	.
CCN(CC)S(=O)(=O)c1ccc(N2CCOCC2)c(NC(=O)c2cccc3c(=O)c(C)c(-c4ccccc4)oc23)c1	4.6	.	-7	i	0.69	10	5	2	2.0
CCN(Cc1ccccc1)C(=O)c1cccc(S(=O)(=O)N2CCN(Cc3ccccc3)CC2)c1	3.1	-7%	-7	i	0.65	-4.9	-8	-32	11
O=C(Nc1cccc2c1C(=O)NC2=O)c1cccc(N2C(=O)CCC2=O)c1	-2.7	8%	-3	i	0.69	-1.0	11	12	-3.2
COc1ccc(S(=O)(=O)N(C)C[C@@H]2Oc3c(NC(=O)c4nc5ccccc5s4)cccc3C(=O)N([C@H](C)CO)C[C@@H]2C)cc1	.	.	.	i	.	5.0	-1	0	0.2
COc1ccc(NC(=O)[C@H](C)NC(N)=O)cc1S(=O)(=O)Nc1cc(C)ccc1Br	0.5	5%	-8	i	0.67	-3.5	2	-2	2.1
C[C@@H]1CN([C@H](C)CO)C(=O)c2cccc(NC(=O)C3CCCCC3)c2O[C@H]1CN(C)Cc1ccccc1	.	.	.	i	.	-0.6	2	0	1.2
O=C(COC(=O)c1ccc(-n2cnnn2)cc1)c1ccc(Br)cc1	1.9	-1%	.	i	0.62	0.7	4	8	0.2
O=C(NCC[C@H]1CC[C@H](NC(=O)c2cnccn2)[C@H](CO)O1)Nc1ccc(F)cc1	.	.	.	i	.	15	2	1	-0.9
O=C(NC(=S)Nc1ccc(NC(=O)c2cccs2)cc1)c1ccc([N+](=O)[O-])cc1	1.4	?	-4	i	0.71	4.3	2	4	-5.0
CCN(CC)C(=S)SCC(=O)Nc1ccc(F)cc1	-3.8	-1%	-3	.	0.69	.	.	.	.
Cc1c(C(=O)NCCCN2CCCC2=O)oc2c(Cl)cccc12	-1.2	-2%	.	i	0.67	-3.1	4	2	0.0
O=C(CCSc1ccccc1)Nc1nc2c(s1)COc1ccccc1-2	-4.7	-42%	45	i	0.76	-2.4	-10	-5	14
COc1cc(CC(=O)OCC(=O)N2CCN(C(=O)c3ccco3)CC2)cc(OC)c1OC	-0.7	.	-2	i	0.7	0.1	-3	15	-2.6
CCCC(=O)Oc1ccc(C2NC(=O)c3ccccc3O2)cc1 (stereo not drawn)	3.0	-5%	.	i	0.63	-2.8	17	16	4.9
CCCn1nnnc1SCC(=O)NCc1ccc(OC)cc1	3.6	1%	-6	.	0.72	.	.	.	.
CCN(CC)CC(=O)Nc1ccc2c(c1)Nc1ccccc1CC2	1.7	25%	99*	.	0.74	.	-18	-15	-6.3
CN(CC(=O)Nc1cccc(F)c1)C(=O)Cn1cnc2c1c(=O)n(C)c(=O)n2C	0.6	-1%	-1	i	0.67	-0.3	8	11	-1.6
Cc1ccc2c(c1)N(CC(=O)NCc1cccs1)C(=O)C(C)O2 (stereo not drawn)	0.4	-3%	3	.	0.68	.	.	.	.
COCCSc1nc(N)c2c3c(sc2n1)CN(C)CC3	-0.6	-6%	-30	i	0.59	-5.0	4	1	2.4
C=CCNC(=O)c1ccc2nc(Cc3ccc(OC)cc3)oc2c1	-2.9	3%	.	.	.	-3.2	3	5	-4.5
CCCCCC(=O)N1C[C@@H](n2cc(COC(=O)c3ccccc3)nn2)[C@H](O)C[C@@H]1c1ccc(Cl)cc1	5.2	2%	.	i	.	2.6	-19	-29	26
O=C(NC1CCCC1)c1cc2ccccc2o1	-3.8	-4%	-7	i	0.72	-2.8	-9	-4	-2.9
CCC(CC)c1nnc(NC(=O)CCN2C(=O)c3ccccc3C2=O)s1	0.0	-5%	0	.	0.76	.	.	.	.
CC(=NNC(=S)N1CCC1)c1ccccn1	-0.2	1%	.	i	.	-3.1	-40	-73	-14
COC(=O)c1ccc(/C=C2\SC(=S)N(CCCC(=O)NCCCN3CCOCC3)C2=O)cc1	3.0	.	13	i	0.72	3.2	-3	4	11
O=C1c2ccsc2SCCN1Cc1c(Cl)cccc1Cl	0.8	-5%	-3	.	0.66	.	.	.	.
O=C(O)c1ccc(N2CCOCC2)c(N2C(=O)C3C4C=CC(C4)C3C2=O)c1 (stereo not drawn)	2.6	.	-5	.	0.67	-2.3	26	26	0.6
COc1ccc(CCNC(=O)c2cc(COc3c(F)cccc3F)on2)c(OC)c1	3.2	5%	-3	i	0.69	-3.0	-6	-3	1.1
Cn1c(=O)c2c(-c3ccccc3)n(-c3ccccc3F)cc2n(C)c1=O	-3.8	.	.	i	.	5.8	-4	4	-5.0
C#CCN(Cc1ccco1)C(=O)c1nnc2c3ccccc3n(S(=O)(=O)c3ccccc3)c2n1	.	.	.	.	.	1.6	4	2	7.4
Cn1c(SCC(=O)Nc2ccc(N3CCOCC3)cc2)nnc1-c1ccccc1F	1.0	.	50	i	0.65	0.7	8	4	-0.9

# Remaining list, next part:
SMILES	HNF4A DNA FP	Vif TR-FRET	ALR H2O2 inh	FGF22 binding	E coli growth	MLL AF4-AF9 inh	Ecoli rRNA inh	Ecoli rRNA inh OD600	Ecoli rRNA inh RFP
COc1ccccc1CNC(=O)COC(=O)c1nc(Cl)ccc1Cl	4.0	8%	-22	i	0.59	-1.0	11	3	-2.5
C[C@H]1CN([C@@H](C)CO)C(=O)Cc2cc(NC(=O)Nc3ccc4c(c3)OCO4)ccc2O[C@@H]1CN(C)Cc1ccc(Oc2ccccc2)cc1	.	.	.	i	.	9.4	4	8	-0.5
CN(C)/C=C/C(=O)c1nnn(C2CCCCC2)c1NC1CCCCC1	-0.6	0%	-16	.	0.65	.	.	.	.
CCOc1ccc2nc(N(CCN(C)C)C(=O)/C=C/c3cccs3)sc2c1	1.4	0%	-3	.	0.7	.	.	.	.
CC(C)C1Cc2[nH]c(=O)c(C(=O)O)cc2CO1 (stereo not drawn)	-0.8	2%	-21	.	0.67	0.3	.	.	.
CC(C)(C)NC(=O)CSc1nnc(-c2c[nH]c3ccccc23)o1	3.7	.	-9	i	0.66	1.6	-2	8	-2.0
COc1ccccc1C(=O)NCCC(=O)NCC(C)(C)N1CCOCC1	-0.3	.	-6	i	0.68	-7.8	20	28	4.0
S=C(NCc1ccccn1)Nc1ccc(Cl)c(Cl)c1	0.6	68%	-2	.	0.71	.	.	.	.
CCOC(=O)N1CCC(N(CCOC)C(=S)Nc2cccc(SC)c2)CC1	1.3	.	-38	i	0.71	2.1	-23*	-15*	-3.2*
O=[N+]([O-])c1ccccc1NCCNS(=O)(=O)c1ccc(Cl)cc1	4.3	24%	-5	.	0.61	.	.	.	.
O=C(CSc1nc2c(c(=O)n1-c1ccc(F)cc1)SCC2)NCC1CCCO1 (stereo not drawn)	1.8	8%	1	.	0.68	.	.	.	.
COc1cccc(CN(C)C(=O)CNC(=O)c2ccc(-c3ccccc3)cc2)c1OC	1.6	3%	-26	i	0.66	-1.6	-4	-42	-3.0
CC(C)CCN(C(=O)CCCSc1nc2ccccc2[nH]1)c1c(N)n(Cc2ccccc2)c(=O)[nH]c1=O	-9.7	.	.	i	.	0.5	-1	11	1.8
O=c1ccc2[n+]([O-])c3ccc(O)cc3oc-2c1	-24	-92%	.	.	0.66	43*	7	4	21
Cc1ccc(NC(=O)CCN2C(=O)CSC2=O)c(C)c1	-3.9	-3%	-7	.	0.77	.	.	.	.
CCc1nn(CCCC(=O)NCc2ccco2)c(=O)c2cc3occc3n12	2.3	-2%	3	i	0.64	-1.1	5	3	2.3
CCCCC(=O)N(C)c1c(CC)nc2c(OCCC)cccn12	-1.2	.	.	i	.	-1.7	10	7	-1.2
COc1cc(NC(=O)Cn2cnc3c(SC)nc(N)nc32)cc(OC)c1OC	2.8	-1%	2	i	0.72	-2.6	-6	0	-2.4
O=C(COC(=O)c1ccc2c(c1)OCO2)Nc1ccccc1	-0.1	?	0	i	0.71	-3.0	13	18	-1.3
CCC(=O)N[C@H]1C=C[C@@H](CC(=O)OC)O[C@H]1CO	.	.	.	i	.	2.9	0	1	-1.5
COc1ccc2nc(NC(=O)c3cccc(S(=O)(=O)N4CCOCC4)c3)sc2c1	0.4	-3%	-5	.	0.7	.	.	.	.
Cc1cc(Cl)ccc1NC(=O)CCC(=O)O	2.9	8%	-4	i	0.68	-0.2	9	2	-2.1
C[C@@H]1CN([C@@H](C)CO)C(=O)c2cc(NC(=O)c3ccncc3)ccc2O[C@@H]1CN(C)S(=O)(=O)c1ccc(F)cc1	.	.	.	i	.	-0.6	-3	-4	0.2
